Source: PubChem
Ecoli rRNA inh = inhibitors of bacterial rRNA selective over humanized ribosomes. E. coli WT GFP vs humanized-ribosome RFP mutants, fluorescence, 24 h; active compounds read low; DMSO median 0, no signal -100. GFP signal change (wild-type ribosome), % (concentration not given with the values). actives 1.6% (n = 350,000);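 active = significant combined selectivity score with lowered wild-type GFP, culture density cut under 30%, mutant RFP and density less affected; inactive = any of these conditions unmet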; also: one replicate is shown; some compounds called inactive have numbers as strong as hits
Ecoli growth = inhibitors of Escherichia coli growth. actives 0.21% (n = 330,000). OD600 absorbance (no concentration beside the values). OD600, 23 h; active compounds read low. AID 1053175;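 active = OD600 absorbance below the run mean of sample wells minus 3.6 SD, in any replicate, cut at about 0.56 in these data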;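 also: stock transfer was 300 nL into about 60 µL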
UCH37 inh = inhibitors of human deubiquitinating enzyme UCH37. Q9Y5K5. purified proteasome/UCH37, Ub-AMC cleavage fluorescence. inhibition, % (no concentration beside the values). actives 0.33% (n = 330,000);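 active = mean of two replicates above 20%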;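 also: 0% = compound-free wells with enzyme and 100% = wells lacking proteasome; stock transfer was 100 nL into about 20 µL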
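Signal – fluorescence, ex 355 nm, em 460 nm · System – Proteasome-bound UCH37 · Input – 0.15 nM proteasome as dispensed · Timing – 30 min preincubation with enzyme, 25 min cleavage at room temperature · Read-out basis – percent inhibition of cleavage signal versus uninhibited and no-proteasome wells · Medium – Tris-HCl pH 7.4 with ATP-MgCl2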
ALR inh = blocks human ALR sulfhydryl oxidase activity. purified ALR, DTT oxidation, H2O2 HRP-luminol luminescence. actives 3.8% (n = 290,000). inhibition, % (test concentration not listed);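 active = mean and each replicate at 75% or more; inconclusive = only one of the two met; inactive = neither met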;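 also: stock transfer was 7.5 nL into about 7.5 µL; 0% = neutral wells and 100% = wells with inactivated enzyme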
Target sequence (P55789 whole entry, looked up): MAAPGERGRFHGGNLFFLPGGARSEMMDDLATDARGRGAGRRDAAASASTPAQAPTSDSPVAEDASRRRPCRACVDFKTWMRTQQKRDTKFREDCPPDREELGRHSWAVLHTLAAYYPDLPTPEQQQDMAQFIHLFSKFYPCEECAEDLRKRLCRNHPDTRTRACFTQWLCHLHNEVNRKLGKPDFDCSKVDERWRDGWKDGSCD
Beta2AR agonist = human beta-2 adrenergic receptor agonism by FAP | Am2.2-beta2AR cells, FAP receptor internalization, flow cytometry; reference of the scale not given here | actives 0.43% (n = 340,000) | response, % (concentration not given with the values) | P07550;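 active = response above a set limit, near 3 SD of response in nonfluorescent compounds, cut at about 42% in these data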;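 also: stock transfer was 100 nL into about 11 µL; a reference agonist was the positive control; negative values mostly stem from fluorescent compounds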
Target sequence (P07550 whole entry, looked up): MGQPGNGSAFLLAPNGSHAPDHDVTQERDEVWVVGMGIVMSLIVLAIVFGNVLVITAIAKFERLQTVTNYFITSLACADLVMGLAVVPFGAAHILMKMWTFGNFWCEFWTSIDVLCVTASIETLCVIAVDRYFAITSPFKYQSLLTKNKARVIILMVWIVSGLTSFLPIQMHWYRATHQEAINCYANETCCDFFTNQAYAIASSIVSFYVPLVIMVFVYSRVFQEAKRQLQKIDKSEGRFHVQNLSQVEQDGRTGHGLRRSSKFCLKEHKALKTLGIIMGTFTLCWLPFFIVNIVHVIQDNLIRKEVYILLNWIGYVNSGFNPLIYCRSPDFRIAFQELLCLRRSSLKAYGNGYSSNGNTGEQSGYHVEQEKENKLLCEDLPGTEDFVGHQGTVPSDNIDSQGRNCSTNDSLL
FGF22 binding = binders of recombinant human FGF22 by thermal shift; Q9HCT0; actives 1.5% (n = 340,000); SYPRO orange fluorescence; percent of sucrose octasulfate shift, DMSO zero; calls only at 9.99 µM;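 active = melting point raised past a set limit in the mean and every replicate; inconclusive = no clear call; three in four hits are not shown here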
Target sequence (Q9HCT0 whole entry, looked up): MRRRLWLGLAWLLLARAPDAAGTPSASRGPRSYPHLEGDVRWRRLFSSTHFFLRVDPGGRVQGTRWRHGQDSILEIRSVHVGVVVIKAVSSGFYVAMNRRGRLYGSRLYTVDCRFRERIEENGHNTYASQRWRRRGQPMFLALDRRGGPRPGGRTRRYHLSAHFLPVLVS
HNF4A DNA FP = change in binding of human HNF4 alpha to DNA; P41235; HNF4a-FITC DNA binding, fluorescence polarization, 1 h; activity change, % at 10 µM; actives 0.3% (n = 360,000); in the data active = activity change above about 30%, passing the limit was not always enough;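 also: controls were the assay level and a saturating level of protein; the project sought stronger binding though the title names inhibitors; some compounds called inactive have numbers as strong as hits; positive values seem to mean higher polarization but the record does not say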
Ecoli rRNA inh OD600 = also measured in Ecoli rRNA inh; calls as there; OD600 change, %; measured here: OD600 growth;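 optical density of the mix in the first replicate; 0 = DMSO median and -100 = no signal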
Ecoli rRNA inh RFP = also measured in Ecoli rRNA inh; calls as there; RFP signal change, %; measured here: RFP humanized mutant strains;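 first replicate; 0 = DMSO median and -100 = no signal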
Starred values were filed as active, the others as inactive; i = inactive; ? = inconclusive; . = not tested or not shown. These rows are one share of the data (hit frequency here may not be typical).

mol,Ecoli rRNA inh,Ecoli rRNA inh OD600,Ecoli rRNA inh RFP,Ecoli growth,UCH37 inh,ALR inh,Beta2AR agonist,FGF22 binding,HNF4A DNA FP
O=C(NCC(=O)N(c1ccc(F)cc1)C(C(=O)NCC1CCCO1)c1ccccc1)c1ccco1 (stereo unspecified),.,.,.,0.68,-0.6,.,-8,.,-1.4
COc1ccc(C(=O)COC(=O)CCCN=C2NS(=O)(=O)c3ccccc32)c(OC)c1,-4,-11,-0.8,0.64,3.3,.,-3,i,-5.7
Cc1ccc(SCC(=O)NNC(=O)CNC(=O)c2ccccc2F)cc1,-2,0,-3.2,0.63,1.1,.,-2,i,-0.3
CCc1nnc(NC(=O)c2ccc(NS(=O)(=O)c3ccccc3)cc2)s1,.,.,.,0.71,-2.5,-15,0,.,-3.5
CCc1n[nH]c(=S)n1/N=C/c1ccc2c(c1)OCO2,.,.,.,.,.,16,1,.,-0.5
CCOc1ccccc1N(CC(=O)N(C)Cc1ccccc1)S(=O)(=O)c1ccccc1,-16,-29,-0.9,0.69,-1.4,2,-4,i,-2.9
CS(=O)(=O)n1nc(NCc2cccs2)nc1NCc1cccs1,3,-2,0.2,0.68,1.1,.,-4,i,0.7
Cc1nc(-c2ccccc2)cn2c1nc1ccccc12,3,8,-0.1,0.71,-431,-22,-1,i,44*
CCC(C)(C)NC(=O)C(c1cccc(OC)c1OC)N(Cc1ccc(OC)cc1)C(=O)CCC(=O)Nc1cc(C)on1 (stereo unspecified),-3,-2,1.2,0.66,-0.6,0,9,i,0.5
COc1cc(/C=c2\s/c(=C\C(=O)C(C)(C)C)[nH]c2=O)cc(OC)c1OC,-18*,-12*,3.7*,.,.,-17,8,i,3.5
COc1ccc(/C=N/NC(=O)c2cccc(OC(F)(F)C(F)F)c2)c(OC)c1OC,.,.,.,.,.,0,-20,.,2.3
Cc1nc(Nc2ccc(O)cc2)c2c3c(sc2n1)CCCC3,-50,-65,-2.9,0.66,5.4,98*,-4,i,3.4
CCC(C)c1ccc(NC(=O)COC(=O)CCNS(=O)(=O)c2cccs2)cc1 (stereo unspecified),0,-7,3.1,0.7,4.0,2,-4,i,2.2
COc1ccc(/C=N\NC(=O)c2cccc(F)c2)cc1COc1ccccc1,-4,0,-1.1,.,.,3,27,i,2.8
CCCCN1C=C(C(C)=O)C(=O)CC1,4,15,7.2,0.69,1.8,.,-15,i,0.7

mol,Ecoli rRNA inh,Ecoli rRNA inh OD600,Ecoli rRNA inh RFP,Ecoli growth,UCH37 inh,ALR inh,Beta2AR agonist,FGF22 binding,HNF4A DNA FP
O=C(/C=C/c1ccccc1)Nc1cc(C(=O)O)cc(C(=O)O)c1,19,14,2.5,0.72,2.8,0,1,i,-2.6
O=C1NC(=Nc2ccccc2Cl)S/C1=C\c1ccc(C(=O)O)cc1,13,9,0.4,0.67,17,61,4,i,0.1
CCOC(=O)c1cnc(SCc2cccc(C)c2)nc1N,.,.,.,0.76,2.2,-16,-5,.,0.5
O=C(CCc1ccc(O)cc1)N/N=C/c1coc2ccccc2c1=O,4,1,-0.1,.,.,79*,12,i,-3.8
O=C(O)CC(NCc1ccco1)C(=O)OCC1CCCO1 (stereo unspecified),.,.,.,0.68,4.6,-9,-1,.,-0.8
COc1cc(OC)cc(C(=O)N(Cc2nc(-c3cccc(C)c3)no2)C(C)C)c1,.,.,.,0.68,4.2,.,-2,.,2.8
O=C(c1ccccc1Cc1ccccc1)N1CCN(S(=O)(=O)c2ccc(F)cc2)CC1,3,11,-1.1,0.66,0.3,.,-3,i,3.7
CCOc1c(S(=O)(=O)N2CCCC2)ccc(Cl)c1Cl,.,.,.,0.74,4.8,1,3,.,1.0
CC(C)(C)c1ccc(C(=O)NC(=S)Nc2sc3c(c2C#N)CCC3)cc1,.,.,.,0.77,7.8,.,9,.,-2.8
O=C1CCc2cc(S(=O)(=O)NCCc3ccc(Cl)cc3)cc3c2N1CC3,-5,-9,1.5,0.71,0.7,.,-11,i,2.9
CC1CCc2c(cnc3ncnn23)C1 (stereo unspecified),4,3,-6.1,0.66,4.0,0,-22,i,1.3
COc1cc(/C=N/NC(=O)CCc2c(C)n[nH]c2C)ccc1O,.,.,.,.,.,99*,-2,.,-1.7
CN(Cc1ccon1)C(=O)CC1C(=O)NCCN1Cc1ccc(Cl)c(F)c1 (stereo unspecified),5,14,0.4,0.74,-5.8,-11,4,i,-3.5
O=C(CSc1ccc(F)cc1)Nc1ccc2c(c1)C(=O)NC2=O,-7,-1,1.7,0.67,2.0,-5,2,i,-0.9
COc1ccc(N(CCCN2C(=O)c3cccc4cccc(c34)C2=O)C(=O)c2cccc(OC)c2)cc1,-3,-9,7.5,0.71,2.7,.,-10,i,1.6

mol,Ecoli rRNA inh,Ecoli rRNA inh OD600,Ecoli rRNA inh RFP,Ecoli growth,UCH37 inh,ALR inh,Beta2AR agonist,FGF22 binding,HNF4A DNA FP
Cc1ccc(-c2cc(C(=O)N3CCCCCC3)no2)cc1,6,3,-0.3,0.69,3.0,-1,-3,i,1.0
CCC(C)CN1CCC(CO)(Cc2ccccc2Cl)CC1 (stereo unspecified),3,-5,-1.3,0.67,2.1,-12,-7,i,1.2
CC1CCCCC1NC(=O)CCNS(=O)(=O)c1ccc2c(c1)CCC(=O)N2 (stereo unspecified),11,10,2.1,0.72,-1.7,-21,-4,i,1.4
COc1ccc(/C=C2\SC(=S)N(CCCC(=O)Nc3ccc(O)cc3)C2=O)cc1,4,11,2.9,0.7,6.3,.,8,i,4.1
CNCc1ccccc1OCC(=O)Nc1ccccc1OC,.,.,.,0.7,0.5,12,2,.,2.9
CSc1ccc(CN2CCC2(C)C(=O)NCc2cccc(C(F)(F)F)c2)cc1 (stereo unspecified),-62,-79,-18,.,.,.,.,i,-3.9
COc1ccc(C(C)=O)cc1CC(=O)N(Cc1ccccc1)c1ccccc1,-23,-19,8.4,0.67,1.6,4,45*,i,0.4
CCOC(=O)c1cnc(Nc2nc3ccccc3o2)nc1CSc1nnc(C)s1,.,.,.,0.69,5.3,5,-7,.,0.7
O=C(Cn1cnc(S(=O)(=O)N2CCOCC2)c1)Nc1ccc(OC(F)(F)F)cc1,8,15,0.6,0.69,7.5,-21,-2,i,3.9
COc1ccc(N(C(=O)c2ccccc2)S(=O)(=O)c2cccs2)cc1,-21,-22,-5.8,0.7,5.7,-4,0,i,2.3
CC(=O)N(\C=C/C=C/C=C1\Sc2ccccc2C1=O)c1ccccc1,7,5,38,0.71,5.2,67,-117,i,49*
COC(=O)c1ccc(Cn2nc(-c3ccccc3)ccc2=O)cc1,2,-1,6.7,0.69,3.9,-2,6,i,2.3
COC(=O)CSc1nnc(-c2ccncc2)n1N,.,.,.,0.66,-0.3,-2,-3,.,2.4
Oc1cccc(/C=N/Nc2cc(N3CCOCC3)nc(N3CCOCC3)n2)c1,.,.,.,.,.,73,9,.,3.5
c1csc(CNCCCN2CCOCC2)c1,.,.,.,0.71,1.0,1,0,.,1.0

Compound profiles, from the list above.
`CS(=O)(=O)n1nc(NCc2cccs2)nc1NCc1cccs1` is entered as Ecoli rRNA inh = 3; Ecoli rRNA inh OD600 = -2; Ecoli rRNA inh RFP = 0.2; Ecoli growth = 0.68; UCH37 inh = 1.1; ALR inh = .; Beta2AR agonist = -4; FGF22 binding = i; HNF4A DNA FP = 0.7
`COc1ccc(N(CCCN2C(=O)c3cccc4cccc(c34)C2=O)C(=O)c2cccc(OC)c2)cc1` is entered as Ecoli rRNA inh = -3; Ecoli rRNA inh OD600 = -9; Ecoli rRNA inh RFP = 7.5; Ecoli growth = 0.71; UCH37 inh = 2.7; ALR inh = .; Beta2AR agonist = -10; FGF22 binding = i; HNF4A DNA FP = 1.6

Going on with the list:
mol,Ecoli rRNA inh,Ecoli rRNA inh OD600,Ecoli rRNA inh RFP,Ecoli growth,UCH37 inh,ALR inh,Beta2AR agonist,FGF22 binding,HNF4A DNA FP
COC(=O)c1ccc(COC(=O)C(CCSC)NC(=O)COc2ccccc2)cc1 (stereo unspecified),0,-8,1.5,0.69,2.1,-1,3,i,2.8
Cc1ccc2nc(/C(C#N)=C\c3ccc([N+](=O)[O-])o3)[nH]c2c1,.,.,.,0.6,4.1,?,-364,.,103
CC(=O)C1C(=O)c2c(cccc2[N+](=O)[O-])C1=Nc1cccc(Cl)c1 (stereo unspecified),-20,-12,-3.0,0.69,6.4,-13,24,i,2.9
O=C(CN1CCN(c2ccccc2)CC1)Nc1ccc(Oc2ccccc2)cc1,.,.,.,0.65,1.2,17,-2,.,-0.6
Cc1ccc(N2CC(C(=O)Nc3cc(C)ccc3F)CC2=O)cc1 (stereo unspecified),.,.,.,0.71,4.6,-1,3,.,0.8
Cc1ccc(S(=O)(=O)N2CCN(C(=O)CSc3n[nH]c(N)n3)CC2)c(C)c1,5,9,-2.2,0.71,-2.3,-3,-20,i,3.9
Cc1cccc(NC(=O)CSc2nc(N)c(NC(=O)c3cccs3)c(=O)[nH]2)c1,6,20,-2.3,0.67,3.6,.,-4,i,-1.7
Cc1ccc([N+](=O)[O-])cc1NC(=O)c1cccs1,5,9,-0.1,0.68,4.0,-5,-9,i,3.6
CCCOC(=O)CSc1nc(N)c(C#N)c(CC)c1C#N,.,.,.,0.71,0.3,.,0,.,-0.9
COc1ccccc1CCC(=O)Nc1ccc2c(c1)CN(Cc1ccc(C)o1)CC2,-3,6,2.6,0.71,0.1,0,3,i,7.3
COc1ccc(CNC(=O)C(=O)NCCC2CCCCN2S(=O)(=O)c2ccc(C)cc2)cc1 (stereo unspecified),-3,-9,6.8,0.68,2.7,-92,0,i,-1.8
CC(C)(C)NC(=O)Cn1cnc2cc([N+](=O)[O-])ccc2c1=O,11,6,-2.2,0.68,0.9,-276,-1,i,-1.0
COc1ccc(CC(=O)Nc2nc(C)cs2)cc1,-3,3,-0.4,0.74,1.9,7,5,i,0.1
Cc1ccc(NC(=S)NC(CO)C(O)c2ccc([N+](=O)[O-])cc2)cc1 (stereo unspecified),14,3,9.0,0.67,2.6,-9,4,i,-1.2
C[C@H]1[C@@H](c2ccccc2)Oc2ccc(Cl)cc2S(=O)(=O)N1Cc1ccc(F)cc1F,13,21,1.8,.,.,.,-3,i,0.5

mol,Ecoli rRNA inh,Ecoli rRNA inh OD600,Ecoli rRNA inh RFP,Ecoli growth,UCH37 inh,ALR inh,Beta2AR agonist,FGF22 binding,HNF4A DNA FP
O=S1(=O)OCCC(c2ccccc2)N1Cc1ccccc1 (stereo unspecified),9,5,0.9,0.7,-0.9,.,3,i,2.3
COc1ccc(CNc2nc(C)c([N+](=O)[O-])c(C)c2C#N)cc1,4,2,-6.1,0.72,5.5,-22,5,i,6.7
CCOc1ccc(CCNC(=O)COC(=O)c2ccco2)cc1OCC,.,.,.,0.7,3.0,-5,0,.,-2.8
CCOC(=O)N1CCN(CCC(=O)Nc2cccc(C)c2)CC1,-1,0,-0.6,0.59,4.1,-2,5,i,1.3
C=CCc1cc(C)ccc1OCCn1ccnc1,.,.,.,0.67,0.5,-12,10,.,0.2
Cc1ccc(S(=O)(=O)N(C)C)cc1[N+](=O)[O-],5,-3,-7.2,0.66,1.4,0,1,i,3.5
Cc1ccc(NS(=O)(=O)c2c(C)[nH]c(=O)[nH]c2=O)c(Br)c1,1,1,-6.4,0.68,0.3,-3,-5,i,0.0
CCCCOc1ccc(NC(=O)c2cnc(C)cn2)cc1,.,.,.,0.72,1.6,-1,-18,.,-1.3
Cc1cc(/C=C(\C#N)C(=O)N2CCCCC2)cc(C)c1O,-12,-14,1.0,0.7,7.7,58,-284,i,-0.1
O=C(Nc1nc(-c2cccs2)cs1)C1=COCCO1,-5,6,-1.2,0.67,0.5,.,-6,i,2.8
CS(=O)(=O)Nc1ccc(C(=O)CC(=O)Nc2ccc([N+](=O)[O-])cc2)cc1,11,6,0.6,0.65,9.6,59,-4,i,-6.3
